Screens: PubChem, Broad Institute
Tgondii IFNg: inhibitors of Toxoplasma gondii growth with IFN-gamma; 3.8% of 69,000 active; Toxoplasma gondii growth in IFN-gamma-treated host cells; hits give low values; reference of the scale not given here; activity change, negative = inhibition, %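 (about 20 µM by stock and volumes)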;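 active = below -70%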;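 note: host cells are HeLa cells infected with Toxoplasma gondii; parasite growth read as luciferase light; one replicate is shown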
* marks the source's active call; other numbers are inactive results; i = inactive; & = joins results of further samples.

SMILES	Tgondii IFNg
Cc1ccc(-c2nn(-c3ccccc3)cc2C2NCCc3[nH]cnc32)o1 (stereo unspecified)	13.6
CN1CC(=O)N2C[C@@H](NC(=O)c3ccc(Cl)s3)C[C@H]2C1=O	-0.3
Cn1c(=O)n(C)c2cc(Br)c(N)cc21	441.5
Cc1cc(=O)n(CC(=O)Nc2nnc(CCc3ccccc3)s2)c2ccccc12	1.6
CCOc1ccccc1Oc1coc2cc(OCC(=O)O)ccc2c1=O	-8.4
CCn1c(CC2CCN(C(=O)c3cc4sccc4[nH]3)CC2)nn(C)c1=O	-39.5
CS(=O)(=O)N1[C@H](C#N)[C@H](c2ccccc2-c2ccccc2F)[C@@H]1CO	16.8
COCCN(C)C(=O)C1CC2(CO1)CN(Cc1ccc(OC)cc1)c1ccccc12 (stereo unspecified)	-34.7
CO[C@@H]1CN(C)C(=O)c2ccc(NC(=O)NC3CCCCC3)cc2OC[C@@H](C)N(CCc2ccccc2)C[C@H]1C	-68.3
CC(C)c1nc(C(=O)N2CC[C@@H](c3ccc4c(c3)OCO4)[C@H](O)C2)cs1	-1.4
CCS(=O)(=O)N1CC2(CN(Cc3ccc4c(c3)OCO4)[C@H](CO)c3[nH]c4cc(OC)ccc4c32)C1	-7.3
Cc1nc(CN2CC[C@H]3[C@@H]2CCN3CC(C)C)cs1	-55.7
COc1ccc(C(=O)Nc2cccc(-c3nc4ccccc4[nH]3)c2)cc1	-52.8
NC(=O)c1ccnc(-c2ccccc2-c2ccccc2)c1	1.9
CCOCC(=O)Nc1ccc2c(c1)CCC(=O)N2CCOC	-0.2
c1ccc(C(NCc2cccnc2)(c2ccccc2)c2ccccc2)cc1	-40.1&-45.4
Cc1ccc(-c2coc(-c3ccc(NC(=O)c4c(F)cccc4F)cc3)n2)cc1	9.1
CC1=C(C(=O)N2CCN(Cc3ccc(C)cc3)C(=O)C2)C(C)NC(=O)N1 (stereo unspecified)	7.6
Fc1cccc(CN2C[C@@H]3N[C@H](C2)C3c2ccc(/C=C/c3ccccc3)cc2)c1 (stereo partly specified)	-62.4&-50.6
CN(C)c1nc2c(c(N3CCCC4(CC3)CNC(=O)O4)n1)CCCC2 (stereo unspecified)	-0.7
CC(C)N1CCN(CC#N)C2(CCN(C(=O)c3ccc[nH]3)C2)C1=O (stereo unspecified)	-49.4
Cc1nc(-c2ccccc2)sc1CCNC(=O)c1ccccc1	i
O=C(Cn1c(=O)cc(C(=O)N2CCc3ccccc3C2)c2ccccc21)Nc1ccc(F)cc1	3.5
COc1cc(NC(=O)CN2CCC3(CC2)N=C(c2ccc(F)cc2)C(=O)N3)cc(OC)c1	16.3
CC(=O)c1ccccc1-c1cnc(-n2cnnc2)cc1C	15.6
CCCn1c(=O)c(C(=O)NCCN(CC)CC)c(O)c2ccccc21	-32.5
Cc1cccc(-n2ccnc2-c2cnc(NCC3CCCO3)nc2)c1 (stereo unspecified)	-11.6
Cn1c2c(c(=O)n1C)CN(S(=O)(=O)c1ccc(F)cc1)CCC2	1.7
COc1ccc2c3c([nH]c2c1)[C@H](CO)N(S(C)(=O)=O)CC31CN(C(=O)c2ccccc2)C1	43.1
CC(=O)N(O)[C@@H]1c2cc(C#N)ccc2OC(C)(C)[C@H]1O	11.4&17.3
CC(=O)Nc1c(C(=O)NCC(C)(C)c2ccccc2F)[nH]c2ccccc12	20.9
O=C(c1ccccc1F)N1CC2(C1)[C@@H](c1ccccc1)[C@@H](CO)N2CC1CCOCC1	72.8
Cn1nc(CN2CCCn3cncc3C2)c2c(Cl)cccc21	0.0
Cc1ccccc1-c1nc(CN(C)S(=O)(=O)c2ccccc2)c(C)o1	-0.5
CCOc1ccc(NC(=O)Cn2c(=O)cc(C(=O)N3CCCC3)c3ccccc32)cc1	3.5
CCCc1cc(C(=O)N2CCc3onc(-c4cccc(F)c4)c3C2)ccn1	-28.6
COc1ccc(-c2c(C#N)c(N)nc3c2CCc2ccccc2-3)cc1OC	-86.3*
COc1ccc(NC(=O)Cn2c(=O)cc(C(=O)N3CCCCC3)c3ccccc32)c(OC)c1	15.3
Cc1nc(-c2ccc(F)cc2)sc1-c1ccc(SCc2cccc(Cl)c2)nn1	-45.1
Cc1cc(C)n(C2CN(C(=O)CCc3c(C)nn(C)c3C)C2)n1	-5.2

In the list so far, these contain an aryl methoxy group.
SMILES	Tgondii IFNg
COCCN(C)C(=O)C1CC2(CO1)CN(Cc1ccc(OC)cc1)c1ccccc12 (stereo unspecified)	-34.7
CCS(=O)(=O)N1CC2(CN(Cc3ccc4c(c3)OCO4)[C@H](CO)c3[nH]c4cc(OC)ccc4c32)C1	-7.3
COc1ccc(C(=O)Nc2cccc(-c3nc4ccccc4[nH]3)c2)cc1	-52.8
COc1cc(NC(=O)CN2CCC3(CC2)N=C(c2ccc(F)cc2)C(=O)N3)cc(OC)c1	16.3
COc1ccc2c3c([nH]c2c1)[C@H](CO)N(S(C)(=O)=O)CC31CN(C(=O)c2ccccc2)C1	43.1
COc1ccc(-c2c(C#N)c(N)nc3c2CCc2ccccc2-3)cc1OC	-86.3*
COc1ccc(NC(=O)Cn2c(=O)cc(C(=O)N3CCCCC3)c3ccccc32)c(OC)c1	15.3

(continued)
SMILES	Tgondii IFNg
Cc1noc(-c2cc(=O)n(CC(=O)Nc3cc(F)cc(F)c3)c3ccccc23)n1	30.4
Cc1ccc(S(=O)(=O)Nc2ccc3c(c2)C(=O)N(C)[C@H]2CC[C@@H](CC(=O)NCCc4ccncc4)O[C@H]2CO3)cc1	-41.2
CCS(=O)(=O)N1CC2(CN(C(=O)Cc3ccccn3)[C@@H](CO)c3[nH]c4cc(OC)ccc4c32)C1	25.7
O=C(Nc1ccccc1)[C@H]1[C@H](CO)[C@H]2Cn3c(cccc3=O)[C@@H]1N2C(=O)c1ccc(F)cc1	-6.3
COc1cccc(/C=N/N=C/c2cccc(OC)c2)c1	11.0
Cc1nc(CN2CCCn3cnc(COCCO)c3C2)cs1	-11.1
C[C@@H]1CN([C@H](C)CO)C(=O)CCCn2cc(nn2)CO[C@H]1CN(C)S(=O)(=O)c1cccc(C#N)c1	240.5
Cc1oc(S(=O)(=O)N2CCOCC2)cc1-c1nc(-c2ccc(C(F)(F)F)cc2)no1	99.4
O=C(CCNC1CCC2(CCNCC2)CC1)Nc1ccc(F)cc1	-27.2
C1CCc2c(nnc3c2-c2nonc2CC3)C1	30.8
CCOc1ccc(S(=O)(=O)N2CCC[C@@H]2C(=O)NCCc2csc(-c3ccccc3)n2)cc1	-24.3
CO[C@H]1CC[C@@H]2CCN(C)C(=O)[C@@H](C)N(C)C(=O)c3cccc(C#N)c3OC[C@@H]1O2	18.3
COc1ccc(NC(=O)N2C[C@H]3[C@@H](c4ccccc42)[C@@H](CO)N3Cc2ccccn2)cc1	16.0
CCc1ccc2oc(=O)cc(CN3CCN(Cc4nc(-c5ccccc5OC)oc4C)CC3)c2c1	-21.2
COc1ccc(-c2cn(CC[C@@H]3CC[C@H](NC(=O)c4cnccn4)[C@@H](CO)O3)nn2)cc1	-5.9
Cn1nc(CC2CCN(C(=O)C3C=CCN3)CC2)n(-c2ccccc2)c1=O (stereo unspecified)	8.1
Cn1cc(CN2CCCC23CCN(c2cccc(F)c2)CC3)cn1	-0.5
Cc1cc(F)cc(-c2c(-c3ccccc3)ncn2CCCN2CCCC2=O)c1	-12.3
O=C(OCCN1CCOCC1)c1cccnc1Nc1cccc(C(F)(F)F)c1	26.6
C=CCOc1ccc(CNc2nccs2)cc1OCC	-5.3
OCc1ccnc(-c2ccc(O)cc2)c1	2.6
CCn1c(SCC(=O)c2c(C)n(C)c3ccccc23)nc(=O)c2c(C(=O)OC)cc(C3CC3)nc21	44.3
CC(C)NC(=O)N1CCN(CC2CC2)CC2(CC(=O)N(C)C2)C1 (stereo unspecified)	30.0
CC(C)CN1C[C@@H]2c3nc(N4CCOCC4)ncc3CS(=O)(=O)[C@H]2C1	-3.6
CCn1c(-c2cc(NC(=O)c3cccnc3)n[nH]2)cc2ccccc21	-105.5*
O=c1c(-c2ccc3c(c2)OCCO3)coc2cc(OC3OC(CO)C(O)C(O)C3O)ccc12 (stereo unspecified)	6.0
Cc1cnc(C)c(-c2cc(O)c3c(c2)CN(CC2CNC(=O)O2)CCO3)n1 (stereo unspecified)	5.9
CN(C)CCCc1cc(C(=O)Nc2ccc(-c3ccncc3)cc2)ccc1O	-12.2
C[C@H]1CCCCO[C@@H](CN(C)C(=O)Nc2ccc3c(c2)OCO3)[C@@H](C)CN([C@@H](C)CO)C(=O)c2cc(NS(=O)(=O)c3ccc(F)cc3)ccc2O1	202.4
O=C(C[C@H]1CC[C@@H](NC(=O)c2ccc3c(c2)OCO3)[C@@H](CO)O1)NCc1ccc(Oc2ccccc2)cc1	-0.3
CN(C)CC(=O)N1C[C@@H]2[C@H](c3ccccc31)[C@H](CO)N2C(=O)c1ccccn1	-1.8
COc1ccccc1-c1nc(Cn2c(=O)c3c(C)cc(C)nc3n(C)c2=O)c(C)o1	5.9
CCCn1nccc1C(=O)N1CCNC(=O)C1c1ccc(F)cc1 (stereo unspecified)	-2.6
CC(=O)Nc1ccc(Nc2nc(-c3nnc(-c4cccc(C)c4)o3)nc3ccccc23)cc1	494.3
O=C(c1ccc(Cl)cc1O)N1CCC2(CCOCC2)CC1	-4.2
C/C=C/c1cnc2c(c1)C(=O)N([C@H](C)CO)C[C@H](C)[C@H](CN(C)CC1CCOCC1)O2	-16.1
O=C1CN(CC(=O)N2CCCC(c3[nH]ncc3-c3ccc(F)cc3)C2)C(=O)N1 (stereo unspecified)	3.1
Cc1ccc(NC(=O)C(c2ccccc2)c2ccccc2)cc1C	-18.1
CN1CCN2CCN(C(=O)CC3=CCNCC3)CC2C1 (stereo unspecified)	-2.0
CS(=O)(=O)NC1COCCC12CCN(CC1CCC1)CC2 (stereo unspecified)	-1.0

Next section, overlapping the part above by four compounds.
SMILES	Tgondii IFNg
O=C1CN(CC(=O)N2CCCC(c3[nH]ncc3-c3ccc(F)cc3)C2)C(=O)N1 (stereo unspecified)	3.1
Cc1ccc(NC(=O)C(c2ccccc2)c2ccccc2)cc1C	-18.1
CN1CCN2CCN(C(=O)CC3=CCNCC3)CC2C1 (stereo unspecified)	-2.0
CS(=O)(=O)NC1COCCC12CCN(CC1CCC1)CC2 (stereo unspecified)	-1.0
COCCN(C)c1nc(C2CCN(Cc3ccco3)CC2)cc2c1ncn2C	-7.2
O=C(NC1CC(=O)N(c2ccc(Cl)cc2)C1)C(=O)c1c[nH]c2ccccc12 (stereo unspecified)	2.4
COc1ccc2c3c(n(C)c2c1)[C@@H](CO)N(Cc1nccs1)CC31CCN(CC2CCCC2)CC1	475.7
CCCNC(=O)N1C[C@H]2[C@@H](c3ccccc31)[C@H](CO)N2Cc1cccc(OC)c1	-2.5
Cc1nc(C(C)NC(=O)c2cccc(C#CC(C)(C)O)c2)n[nH]1 (stereo unspecified)	4.1
C[C@@H]1CN([C@@H](C)CO)C(=O)c2cc(NC(=O)Nc3cccc4ccccc34)ccc2O[C@@H](C)CCCCO[C@@H]1CN(C)Cc1ccc(C(F)(F)F)cc1	i
COc1ccc(CNc2nc(SCc3ccc(F)cc3)nc3ccccc23)cc1	-69.9
CCOC(=O)Cc1nc(N)ncc1C(=O)OCC	-17.7
Cc1cccc(CN2C[C@H]3[C@H](C(=O)Nc4ccccc4)CCS(=O)(=O)[C@H]3C2)c1	-114.7*
Cc1nc(COC[C@@H]2CCC3C(CCN3C(N)=O)O2)cs1 (stereo partly specified)	10.9
Cn1cc(N2CC3(CCN(S(C)(=O)=O)C3)CC2=O)cn1 (stereo unspecified)	12.5
O=C(NCC1CC1)[C@H]1C[C@@H]2CN(C(=O)Nc3ccccc3Cl)C[C@H]1O2	5.4
COc1ccc(-c2nc(C)c(CCNC(=O)C(=O)Nc3ccccc3C#N)s2)cc1OC	-28.7
CCOC(=O)c1c(NC(=O)CSc2nc(C)cc(C)n2)sc2c1CCC2	-44.3
COc1ccc(-c2nccc3ccccc23)cn1	6.7
CS(=O)(=O)N1CCc2cc(NC(=O)c3ccnn3C(F)F)ccc21	4.0
CC1=NN(c2ccc(C(=O)O)cc2)C(=O)/C1=C\c1ccc(-c2cc(C)c(C)cc2[N+](=O)[O-])o1	38.7
COc1ccc(S(=O)(=O)Nc2ccc3c(c2)C(=O)N([C@@H](C)CO)C[C@H](C)[C@H](CN(C)Cc2ccc(C(F)(F)F)cc2)OCCCC[C@H](C)O3)cc1	-107.3*
C=CCN(CC#Cc1ccccc1)Cc1ccccn1	0.2
CO[C@@H]1CN(C)C(=O)c2ccc(NS(C)(=O)=O)cc2OC[C@H](C)N(CC2CC2)C[C@@H]1C	80.6

A few values from above.
Cc1ccc(-c2coc(-c3ccc(NC(=O)c4c(F)cccc4F)cc3)n2)cc1 – Tgondii IFNg: 9.1
COc1ccc(-c2nccc3ccccc23)cn1 – Tgondii IFNg: 6.7
COc1ccc2c3c(n(C)c2c1)[C@@H](CO)N(Cc1nccs1)CC31CCN(CC2CCCC2)CC1 – Tgondii IFNg: 475.7

(listing goes on)
SMILES	Tgondii IFNg
COc1ccc(CNC(=O)c2nc3c(s2)CCN(C(=O)CC(C)C)CC3)cc1	17.2
CCc1ccc(-c2noc(-c3c(O)c4cccc(Cl)c4[nH]c3=O)n2)cc1	109.7
Cc1ccc(C(C)NC(=O)Cn2ncc3c(N4CCOCC4)ncnc32)cc1 (stereo unspecified)	20.5
C=Cc1cccc(CN2CCC(CNC(=O)c3ccc(=O)[nH]n3)C2)c1 (stereo unspecified)	-1.5
O=C(Cc1cccnc1)N1CC(=O)N2[C@H](CO)[C@@H](c3ccc(/C=C/c4ccccc4)cc3)[C@H]2C1	-37.4
O=S(=O)(C1CC1)N1CC[C@@H]2[C@H]1CCN2Cc1ccoc1	i
CC12CCC(C(=O)N(c3ccc(S(N)(=O)=O)cc3)C1=O)C2(C)C (stereo unspecified)	6.3
O=C(c1cnccn1)N1C[C@@H]2N[C@H](C1)C2c1ccc(/C=C/c2ccccc2)cc1 (stereo partly specified)	-44.0&5.2
Cc1ccc2[nH]cc(CCN3CC(C(=O)N4CCc5ccccc5C4)CC3=O)c2c1 (stereo unspecified)	211.3
Cc1cccc(S(=O)(=O)NCCc2sc(-c3cccc(F)c3)nc2C)c1	31.5
CCS(=O)(=O)N1CCCCN2[C@@H](CO)[C@@H](c3ccc(-c4ccc(C(=O)N(C)C)cc4)cc3)[C@@H]2C1	26.7

Some of the compounds tested (hit frequency here may not be typical).
